RanGTP-Impb inh – disruptors of Ran-importin-beta complex formation – biochemical, FRET, CFP-Ran, YFP-importin-beta, homogeneous, primary screen; cell-free CFP-Ran/YFP-importin-beta FRET ratio; inhibition, % (no concentration beside the values); actives 1.1% (n = 300,000); AID 2216;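 active = most replicates above 15%; inconclusive = exactly half above 15%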;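 note: 0% = DMSO wells and 100% = Ran loaded with GDP instead of GTP; wells of about 40 µL received 100 nL stock; the first replicate is given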
Bfl-1 A1 inh – inhibitors of the anti-apoptotic protein A1, read as caspase activation; AID 2462; actives 0.066% (n = 330,000); MEF A1-2A-BIM cells, Caspase-Glo 3/7 luminescence, 3 h; percent of clofoctol response, vehicle zero; caspase activation, % (concentration not given with the values);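 active = over half of replicate activation scores above 10%, or exactly half above 10 with the replicate mean above 10; inconclusive = replicate mean below 10 yet half the replicates above 10; inactive = over half of replicates below 10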;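 note: wells of about 30 µL received 50 nL stock; many hits fall short of the cut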
UCH37 DUB inh – blocks the human deubiquitinase UCH37; Q9Y5K5; purified proteasome/UCH37, Ub-AMC cleavage fluorescence; inhibition, % (concentration not given with the values); actives 0.33% (n = 330,000); AID 588478;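 active = mean of two replicates above 20%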;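 note: 0% = compound-free wells with enzyme and 100% = wells lacking proteasome; stock transfer was 100 nL into about 20 µL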
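Assay system: Proteasome-bound UCH37. Buffer or medium: pH 7.4 Tris-HCl (50 mM) with ovalbumin, ATP-MgCl2, DTT. Incubation: 30 min preincubation with enzyme, 25 min cleavage at room temperature. Measured by: fluorescence, ex 355 nm, em 460 nm. Read-out basis: percent inhibition. Control set: wells without proteasome as full block, compound-free enzyme plus substrate as uninhibited.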
Beta2AR agonist – activates human beta-2 adrenergic receptor causing internalization; P07550; Am2.2-beta2AR cells, FAP receptor internalization, flow cytometry; reference of the scale not given here; response, % (no concentration beside the values); actives 0.43% (n = 340,000);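 active = response above a set limit, near 3 SD of response in nonfluorescent compounds, cut at about 42% in these data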;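 note: stock transfer was 100 nL into about 11 µL; a reference agonist was the positive control; negative values mostly stem from fluorescent compounds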
Calb FLC – affects C. albicans growth with fluconazole | C. albicans CaCi-2 (fluconazole-resistant clinical isolate) + fluconazole, Alamar Blue growth, 48 h | growth inhibition, % (concentration not given with the values) | actives 0.57% (n = 300,000) | AID 1979;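 active = most replicates above 75%; inconclusive = exactly half above 75%; inactive = most below 75%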;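 note: all wells also contain fluconazole at 8 µg/ml as a sub-toxic cotreatment; 0% = median of DMSO wells and 100% = median of geldanamycin control wells; wells of about 8 µL received 7.5 nL stock; the first replicate is given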
T cruzi repl – T. cruzi replication inhibition. T. cruzi beta-gal in NIH3T3, luminescence, 90 h. inhibition, % (test concentration not listed). actives 1.4% (n = 300,000);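 active = mean inhibition across valid replicates above about 55%, limit read from the data; inconclusive = mean below that limit but half or more replicates reach it; inactive = mean below it, under half of replicates reach it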;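 note: signal also drops with host cell toxicity which is not excluded here; 0% = plate median of DMSO wells and 100% = zero luminescence signal; higher percent means less beta-gal luminescence so fewer parasites; stock transfer was 50 nL into about 50 µL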
LANA-H2B inh – blocks KSHV LANA binding to histone H2A/H2B; inhibition, % (test concentration not listed); actives 0.6% (n = 320,000); Q9QR71; cell-free LANA-H2A/H2B peptide, fluorescence polarization; in the data active = inhibition mostly above about 10%, no sharp cut-off; inactive = mostly below about 6.7%;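 note: stock transfer was 7.5 nL into about 10 µL; 0% = median of vehicle wells and 100% = median of positive control wells; one replicate is shown; the record names a cut of 25% in any replicate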
Target sequence (Q9QR71 whole entry, looked up): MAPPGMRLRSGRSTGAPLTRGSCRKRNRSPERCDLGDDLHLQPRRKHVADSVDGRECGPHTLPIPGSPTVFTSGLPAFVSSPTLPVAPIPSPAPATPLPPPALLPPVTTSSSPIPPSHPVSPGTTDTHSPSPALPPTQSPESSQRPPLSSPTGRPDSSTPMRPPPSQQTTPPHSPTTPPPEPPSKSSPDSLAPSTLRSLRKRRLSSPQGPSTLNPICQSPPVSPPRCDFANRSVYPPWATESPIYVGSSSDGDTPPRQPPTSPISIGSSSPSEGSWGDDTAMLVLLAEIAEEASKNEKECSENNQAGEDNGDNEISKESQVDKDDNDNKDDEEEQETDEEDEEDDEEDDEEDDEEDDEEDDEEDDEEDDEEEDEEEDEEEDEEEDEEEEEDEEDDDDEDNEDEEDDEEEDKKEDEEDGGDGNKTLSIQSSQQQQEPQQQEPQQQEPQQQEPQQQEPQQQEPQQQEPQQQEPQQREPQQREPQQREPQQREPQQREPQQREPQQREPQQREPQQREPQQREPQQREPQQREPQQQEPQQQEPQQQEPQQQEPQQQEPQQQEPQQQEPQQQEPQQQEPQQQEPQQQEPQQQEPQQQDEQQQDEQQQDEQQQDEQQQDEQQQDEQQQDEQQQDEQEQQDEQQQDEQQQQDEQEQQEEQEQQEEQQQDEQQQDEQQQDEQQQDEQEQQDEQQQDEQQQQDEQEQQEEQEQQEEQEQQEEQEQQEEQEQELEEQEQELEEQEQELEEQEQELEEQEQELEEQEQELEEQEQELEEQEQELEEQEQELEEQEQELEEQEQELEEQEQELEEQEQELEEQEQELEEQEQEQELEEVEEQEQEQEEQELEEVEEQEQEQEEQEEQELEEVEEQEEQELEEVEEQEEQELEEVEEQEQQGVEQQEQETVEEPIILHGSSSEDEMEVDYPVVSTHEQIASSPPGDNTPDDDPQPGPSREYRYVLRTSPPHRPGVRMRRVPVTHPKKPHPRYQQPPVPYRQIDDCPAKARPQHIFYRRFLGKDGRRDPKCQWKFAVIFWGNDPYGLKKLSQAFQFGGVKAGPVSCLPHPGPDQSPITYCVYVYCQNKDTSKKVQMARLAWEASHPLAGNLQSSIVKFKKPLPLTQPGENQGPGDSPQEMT
Beta cell apopt – blocks beta cell apoptosis | INS-1E cytokine-induced death, ATP luminescence, 48 h; percent of positive-control rescue, neutral wells zero | protection from apoptosis, % (no concentration beside the values) | actives 0.8% (n = 300,000);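 active = all replicates at 75% or more, or half of them and the mean; inconclusive = half reach 75% but not the mean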;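 note: 0% = cytokine-treated negative control wells and 100% = positive control rescue; higher means more ATP so stronger rescue from cytokine killing; wells of about 40 µL received 100 nL stock; the first replicate is given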
* marks the source's active call; other numbers are inactive results; ? = inconclusive; . = no result given.

Results follow in this order: LANA-H2B inh	Calb FLC	T cruzi repl	RanGTP-Impb inh	Bfl-1 A1 inh	UCH37 DUB inh	Beta cell apopt	Beta2AR agonist
- COc1ccc(C)cc1NC(=O)CCCN1C(=O)C2CC=CCC2C1=O (stereo unspecified)
 : -21	-10	4	0.7	0.0	.	.	-4
- O=S(=O)(c1ccccc1F)N1CCc2ccccc2C1
 : 2.3	6	10	1.7	0.1	3.6	-7	4
- O=C(NNC(=O)c1ccccc1F)c1cccc(Cl)c1
 : -2.6	15	5	.	-0.9	0.4	-2	3
- CCCN(CC#CC(O)(c1ccccc1)c1cccnc1)CCC (stereo unspecified)
 : 3.6	37	65*	7.5	-0.5	-2.3	0	1
- Cc1ccc(CNC(=O)c2nc3nc(C)cc(C)n3n2)cc1
 : 2.0	-6	-16	1.2	0.4	-1.6	-2	3
- CCN(CC)CCNc1nc(-c2ccco2)c2c(c1C#N)CC(C)(C)OC2
 : -4.9	-31	45	.	-1.1	-175	-2	-2
- CC(C)n1nc(C(=O)Nc2ccccc2N2CCOCC2)c2ccccc2c1=O
 : 1.5	11	22	3.2	1.0	5.1	12	9
- O=C(Nc1nnc(-c2ccco2)o1)c1ccc(N2C(=O)CCC2=O)cc1
 : -0.5	-17	-18	1.0	0.4	5.6	2	0
- Cc1cc(C)cc(NC(=O)c2cnn(-c3ccccc3)c2C2CCNCC2)c1
 : -2.9	3	-4	-0.1	-0.1	4.4	-7	7
- NS(=O)(=O)c1cccc(NC(=O)CNC(=O)CC23CC4CC(CC(C4)C2)C3)c1
 : 4.0	-1	5	1.9	-0.8	2.4	-6	19
- COc1ccc(/C=C/C(=O)Nc2ccccc2C(=O)NCC(c2ccc(OC)cc2)N(C)C)cc1 (stereo unspecified)
 : -3.9	-5	3	6.4	-2.3	.	.	10
- CCOCCCNCC(=O)N1CCN(S(=O)(=O)c2ccc(C)cc2)CC1
 : 5.6	1	16	-1.9	-0.2	-2.7	-9	2
- CCCc1cc(=O)[nH]c(SCC(=O)N(CC)C2CCS(=O)(=O)C2)n1 (stereo unspecified)
 : 1.8	3	-12	3.3	0.3	2.4	-3	-2
- CCn1c(O)c(/C=N/N=C2CCCCC2)c2cc(C3=NNC(=O)CC3)ccc21
 : 1.8	-3	-7	-6.3	0.5	.	0	24
- COc1ccc2c(c1)C=C(C(=O)NCc1ccc(Cl)cc1)CO2
 : 7.2	8	15	-3.5	.	3.1	-13	-7
- COC(=O)c1cc(NC(=O)C(C)c2ccc(CC(C)C)cc2)ccc1O (stereo unspecified)
 : 1.5	-6	19	-1.5	-0.5	-8.9	11	-2
- CC(=O)N1CCOc2ccc(S(=O)(=O)N3CCC(C(=O)Nc4ccc(C)c(C)c4)CC3)cc21
 : 4.2	-1	7	-2.9	0.6	1.8	1	1
- C=CC[C@H](CC(=O)NCCO)C(=O)N[C@@H](C)COC(=O)[C@@H](CC=C)CC(=O)OC(C)(C)C
 : -7.1	.	.	.	0.9	3.7	-9	-10
- CCOC(=O)C1CCN(C(c2cccc(F)c2)c2sc3nc(C)nn3c2O)CC1 (stereo unspecified)
 : -6.3	9	-6	-1.1	0.6	4.9	-1	3
- Cc1nc2ccccc2n1C1CC(=O)N(N(C)C)C1=O (stereo unspecified)
 : -3.6	-1	-9	-0.2	-0.2	2.4	2	-2
- COc1cc(CCC(=O)Nc2nnc(C)s2)cc(OC)c1OC
 : -2.9	-1	-10	2.3	2.3	1.1	.	-7
- COc1ccc(CCNC(=O)Cn2c(=O)c3cccn3c3cccnc32)c(OC)c1OC
 : 1.5	5	-1	1.5	0.3	-0.9	4	-4
- Cc1ccccc1NC(=O)C(=O)N/N=C/c1cccc(Br)c1
 : 0.6	8	7	0.6	1.0	.	.	0
- Cc1cc(Sc2ncnc(N)c2[N+](=O)[O-])ncn1
 : -3.6	101*	53	5.3	3.8	9.6	-41	3
- CCOc1ccc(Nc2nc(C)cc(C)c2C#N)cc1
 : 5.1	?	15	-0.5	0.6	-121	-5	-2
- COc1ccc(OC2CCN(S(=O)(=O)c3ccc(OC)c(OC)c3)CC2)cc1
 : -5.3	-1	-1	0.5	0.0	2.2	0	4
- COc1ccc(CNC(=O)COC(=O)c2ccco2)cc1
 : 4.8	-5	-17	1.4	-0.6	3.7	-6	-1
- COc1ccc(CN2CCNC(=O)C2CC(=O)NCC(C)(C)N2CCOCC2)cc1C (stereo unspecified)
 : -1.3	-4	6	4.7	-1.2	-2.8	.	-7
- CC(OC(=O)c1nc(Cl)ccc1Cl)C(=O)NC1CCCCC1C (stereo unspecified)
 : 2.7	.	.	.	0.1	.	0	-6
- O=C(CSc1cccc(C(F)(F)F)c1)N1CCN(S(=O)(=O)c2ccccc2)CC1
 : 1.7	1	28	5.3	-0.8	5.0	.	-6
- CC(C)(C)c1ccc(OCC(=O)NC2CCS(=O)(=O)C2)cc1 (stereo unspecified)
 : 0.9	4	5	6.6	0.6	0.5	11	-3
- O=S(=O)(c1cccc2cccnc12)N1CCN(c2ccccn2)CC1
 : -1.5	-2	2	-1.3	0.0	4.1	-2	-5
- COc1ccccc1CC1(C)NC(=O)N(CC(=O)Nc2cc(C)on2)C1=O (stereo unspecified)
 : -5.5	-3	-3	?	-0.2	-1.3	4	2
- O=C(Nc1c(C(=O)N2CCC(N3CCCCC3)CC2)oc2ccccc12)c1ccc(F)cc1
 : 2.4	-19	8	0.2	-1.0	2.3	-9	-2
- COc1ccc(NC(C)=O)cc1NC(=O)CSc1nnc(-c2cccnc2)n1C
 : 0.0	-19	-12	-3.7	0.2	-1.9	-4	19
- COc1ccc(C)cc1NC(=O)C1CC(=O)OC12CCCCC2 (stereo unspecified)
 : 1.8	3	-7	-1.5	0.0	4.5	-2	2
- O=S(=O)(Nc1cccc2cccnc12)c1ccc(S(=O)(=O)N2CCCC2)cc1
 : 0.3	96*	69*	-3.4	-0.5	0.4	53	29
- Cc1ccccc1NC(=O)N1C2CCCC1CC(NC(=O)C1CC1)C2 (stereo unspecified)
 : 1.7	-19	-6	1.0	0.4	3.8	2	1
- C=C(C)C1CC=C(C)/C(=N\NC(=O)CNc2ccccc2OC)C1 (stereo unspecified)
 : -1.7	-12	-14	-1.3	-0.8	.	5	-4
- O=C(Nc1ccccc1C(=O)O)c1ccc(N2C(=O)C3CC=CCC3C2=O)cc1 (stereo unspecified)
 : -6.3	10	-11	-2.2	-6.3	0.3	.	-8
- Cn1nc(C(C)(C)C)cc1C(=O)NCc1cc(F)cc2c1OCOC2
 : 2.7	-8	.	-0.9	0.2	3.1	102*	-6
- Cc1cc(C)c(S(=O)(=O)c2c(C)cccc2C)c(Cl)n1
 : 2.1	-16	47	-1.5	0.6	6.6	-2	2
- Cc1cc2c(c(=O)n1CCc1ccccc1)C(c1ccco1)C(C#N)=C(N)O2 (stereo unspecified)
 : -2.2	-9	.	11	0.0	-8.7	0	0
- O=C(O)c1ccc2cccnc2n1
 : -0.2	5	-4	6.7	-0.9	3.0	2	1
- CCOC(CNc1ncnc2sc(-c3ccccc3)cc12)OCC
 : 4.8	10	21	5.2	-0.2	-34	-3	2
- COc1ccc(Cl)cc1N(CC(=O)Nc1ccc2c(c1)OCO2)S(C)(=O)=O
 : 2.2	9	-6	?	0.2	2.5	.	-1
- O=C(NN1C(=O)/C(=C/C=C/c2ccco2)SC1=S)c1ccccc1O
 : -3.3	22	-2	-0.9	-0.2	8.1	2	-3
- CCCCC(Nc1ncnc2ccccc12)C(=O)O (stereo unspecified)
 : -5.7	-9	0	-3.5	-0.8	4.5	-3	-6
- COc1cccc(-c2nnc(SCc3ccccn3)n2C)c1
 : -1.7	-3	0	0.5	0.1	0.6	-3	5
- OCc1nc2ccccc2n1Cc1ccc(Cl)cc1
 : -8.4	-6	-10	3.5	-0.1	3.9	1	-1
- CC1CCN(S(=O)(=O)c2ccc3[nH]c(=O)[nH]c3c2)CC1
 : -1.8	2	-7	-0.7	-0.1	2.5	-4	3
- CCN(CC)c1ccc(NC(=O)OC)cc1
 : 0.1	6	31	1.6	-1.0	4.7	8	2
- CC(C(=O)Nc1ccc(C#N)cc1)N(C)CC(=O)Nc1cccc(F)c1 (stereo unspecified)
 : 3.3	-13	-11	4.5	0.7	-0.7	13	4
- C[C@H]1CN=C(Nc2ccccc2)N1CC1CCCCCC1
 : 2.3	-17	-5	4.3	0.9	0.7	-1	1
- COc1ccc(-c2cc(=O)oc3cc(OC(C)C(=O)NCCCn4ccnc4)ccc23)cc1 (stereo unspecified)
 : -4.0	3	12	0.9	-1.0	-4.9	-2	-25
- COc1ccc(Cl)cc1NS(=O)(=O)c1cccc(C(=O)NCC(C)(C)N2CCOCC2)c1
 : -7.1	.	.	.	0.0	5.5	-5	-1
- COc1ccc(C(=O)O)cc1F
 : -0.3	0	1	0.4	-0.8	4.4	1	-2
- COC(=O)c1ccc(CN2C(=O)NC3(CCC(C)CC3)C2=O)o1 (stereo unspecified)
 : -0.7	1	-18	?	-0.6	0.6	-1	2
- CC1(OC(=O)C2CCCC2)C(=O)C=C2C=C(c3ccsc3)N(CCN3CCOCC3)C=C2C1=O (stereo unspecified)
 : .	16	13	2.5	.	2.4	.	.
- S=C(Nc1ccc(Nc2ccccc2)cc1)N1CCN(c2ncccn2)CC1
 : 0.5	-2	1	3.2	2.2	2.7	.	-15

The list continues:
Results follow in this order: LANA-H2B inh	Calb FLC	T cruzi repl	RanGTP-Impb inh	Bfl-1 A1 inh	UCH37 DUB inh	Beta cell apopt	Beta2AR agonist
- CCOc1ccc(C2=C(C=Nc3c(C)n(C)n(-c4ccccc4)c3=O)C(c3ccc(F)cc3)c3ccccc3O2)cc1 (stereo unspecified)
 : 3.7	-1	53	-1.6	-0.4	4.4	19	-9
- Cc1cccc(C)c1NC(=O)CSc1ncnc2[nH]ncc12
 : 3.0	.	.	.	0.2	4.4	-4	-4
- Cc1cccc[n+]1CC(=O)Nc1cccc([N+](=O)[O-])c1
 : 0.7	28	6	7.9	1.1	-2.9	-2	10
- Cc1nnc(NCCc2ccccc2)[nH]c1=O
 : 4.1	?	0	2.5	0.0	-0.1	-1	-2
- CCOc1c2ccc(C(=O)NCCc3ccc(C)cc3)cc2nn1CC
 : -4.2	-14	0	-3.5	-1.0	-48	-5	-17
- Cc1ccc2nc(-c3ccncc3)cc(C(=O)NCCc3ccc(F)cc3)c2c1
 : 5.2	-10	56*	3.6	0.3	-8.9	6	16
- O=C(c1ccccc1)c1ccc2nc(Nc3ccccc3)c3nncn3c2c1
 : -2.9	1	20	1.2	-0.2	-8.8	-4	-6
- COc1ccccc1CNC(=O)COC(=O)c1ccc(N2CCCC2=O)cc1
 : 0.6	.	.	.	0.6	0.8	-5	-5
- COc1ccccc1C1N=C(c2ccccc2C)NO1 (stereo unspecified)
 : -7.5	-1	0	?	-5.0	2.1	-6	-15
- O=C(C1CCCN(S(=O)(=O)c2ccc(F)cc2)C1)N1CCCCC1 (stereo unspecified)
 : -8.9	-39	-1	0.3	0.2	2.2	-5	-17
- Cc1ccc(C(=O)NCC(=O)NCC(c2cccs2)N2CCOCC2)cc1C (stereo unspecified)
 : 2.2	-9	-3	0.2	0.6	-2.7	-6	3

Screening results from PubChem BioAssay.
